Bioassay records as filed in PubChem.
Bfl-1 A1 inh: inhibitors of the anti-apoptotic protein A1, read as caspase activation; 330,000 tested, 0.066% active; caspase activation, % (no concentration beside the values); MEF A1-2A-BIM cells, Caspase-Glo 3/7 luminescence, 3 h; percent of clofoctol response, vehicle zero;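 active = over half of replicate activation scores above 10%, or exactly half above 10 with the replicate mean above 10; inconclusive = replicate mean below 10 yet half the replicates above 10; inactive = over half of replicates below 10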;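 also: wells of about 30 µL received 50 nL stock; many hits fall short of the cut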
Ecoli rRNA inh: selective bacterial rRNA inhibition in E. coli; E. coli WT GFP vs humanized-ribosome RFP mutants, fluorescence, 24 h; hits give low values; DMSO median 0, no signal -100; GFP signal change (wild-type ribosome), % (no concentration beside the values); 350,000 tested, 1.6% active; AID 720706;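 active = significant combined selectivity score with lowered wild-type GFP, culture density cut under 30%, mutant RFP and density less affected; inactive = any of these conditions unmet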; also: one replicate is shown; some compounds called inactive have numbers as strong as hits
Beta cell apopt: beta cell apoptosis inhibition; protection from apoptosis, % (concentration not given with the values); INS-1E cytokine-induced death, ATP luminescence, 48 h; percent of positive-control rescue, neutral wells zero; 300,000 tested, 0.8% active;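 active = all replicates at 75% or more, or half of them and the mean; inconclusive = half reach 75% but not the mean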;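 also: 0% = cytokine-treated negative control wells and 100% = positive control rescue; higher means more ATP so stronger rescue from cytokine killing; wells of about 40 µL received 100 nL stock; the first replicate is given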
UCH37 DUB inh: inhibitors of human deubiquitinating enzyme UCH37; Q9Y5K5; purified proteasome/UCH37, Ub-AMC cleavage fluorescence; inhibition, % (test concentration not listed); 330,000 tested, 0.33% active; AID 588478;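 active = mean of two replicates above 20%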;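 also: 0% = compound-free wells with enzyme and 100% = wells lacking proteasome; stock transfer was 100 nL into about 20 µL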
Target sequence (Q9Y5K5 whole entry, looked up): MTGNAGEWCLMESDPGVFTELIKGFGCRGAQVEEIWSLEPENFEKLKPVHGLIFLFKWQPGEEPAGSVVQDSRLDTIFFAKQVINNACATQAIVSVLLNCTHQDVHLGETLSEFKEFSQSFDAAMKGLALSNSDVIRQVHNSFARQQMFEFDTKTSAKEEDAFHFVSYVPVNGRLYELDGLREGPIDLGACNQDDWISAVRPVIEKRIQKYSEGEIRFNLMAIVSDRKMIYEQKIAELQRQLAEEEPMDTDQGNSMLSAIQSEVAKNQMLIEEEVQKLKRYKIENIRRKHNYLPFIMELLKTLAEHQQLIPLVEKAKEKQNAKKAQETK
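Material: Human UCH37 enzyme supplied as purified proteasome complex | Schedule: 30 min preincubation with enzyme, 25 min cleavage at room temperature | Detection: AMC fluorescence 355/460 nm | Measure: % inhibition of Ub-AMC cleavage fluorescence | Controls: Wells without proteasome as full block, compound-free enzyme plus substrate as uninhibited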
MLL AF4-AF9 inh: MLL-AF4/AF9 protein interaction inhibition. AlphaScreen, biotin-AF4 peptide binding to FLAG-AF9. AID 651704. P42568. inhibition, % at 10 µM. 350,000 tested, 0.47% active;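 active = every replicate reaching a set inhibition limit, whatever the replicate mean, cut at about 25% in these data; inconclusive = mean inhibition reaches that limit but some replicates miss it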;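 also: 0% = plate neutral control median and 100% = total signal loss; the record names both 10 and 1 µM as test concentration; the first replicate is given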
Target sequence (P42568 whole entry, looked up): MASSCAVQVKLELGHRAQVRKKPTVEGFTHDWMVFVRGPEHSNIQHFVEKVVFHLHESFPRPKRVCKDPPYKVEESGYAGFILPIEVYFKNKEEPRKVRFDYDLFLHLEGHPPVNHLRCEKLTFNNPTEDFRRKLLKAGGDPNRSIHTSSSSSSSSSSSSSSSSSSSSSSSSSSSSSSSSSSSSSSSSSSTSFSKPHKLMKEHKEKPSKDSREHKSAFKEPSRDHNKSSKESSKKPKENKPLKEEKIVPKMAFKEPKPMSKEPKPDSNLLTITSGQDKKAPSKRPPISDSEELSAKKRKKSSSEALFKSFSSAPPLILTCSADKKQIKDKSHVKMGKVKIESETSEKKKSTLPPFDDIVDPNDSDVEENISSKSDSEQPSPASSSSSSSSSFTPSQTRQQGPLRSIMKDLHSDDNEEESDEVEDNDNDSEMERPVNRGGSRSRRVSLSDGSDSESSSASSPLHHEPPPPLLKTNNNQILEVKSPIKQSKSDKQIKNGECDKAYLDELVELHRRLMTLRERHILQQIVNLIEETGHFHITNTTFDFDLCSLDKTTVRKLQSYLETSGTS
FGF22 binding: FGF22 (human) thermal shift binding; recombinant FGF22 thermal shift, SYPRO orange fluorescence; percent of sucrose octasulfate shift, DMSO zero; calls only at 9.99 µM; 340,000 tested, 1.5% active;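 active = melting point raised past a set limit in the mean and every replicate; inconclusive = no clear call; three in four hits are not shown here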
Target sequence (Q9HCT0 whole entry, looked up): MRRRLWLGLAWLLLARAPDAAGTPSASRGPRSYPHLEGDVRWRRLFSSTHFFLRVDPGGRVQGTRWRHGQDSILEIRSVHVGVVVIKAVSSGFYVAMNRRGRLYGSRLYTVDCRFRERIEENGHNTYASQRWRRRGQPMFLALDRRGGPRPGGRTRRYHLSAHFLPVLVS
E coli growth: blocks Escherichia coli growth | OD600, 23 h; hits give low values | OD600 absorbance (no concentration beside the values) | 330,000 tested, 0.21% active;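 active = OD600 absorbance below the run mean of sample wells minus 3.6 SD, in any replicate, cut at about 0.56 in these data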;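 also: stock transfer was 300 nL into about 60 µL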
T cruzi inh: T. cruzi replication inhibition; inhibition, % (no concentration beside the values); T. cruzi beta-gal in NIH3T3, luminescence, 90 h; 300,000 tested, 1.4% active;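 active = mean inhibition across valid replicates above about 55%, limit read from the data; inconclusive = mean below that limit but half or more replicates reach it; inactive = mean below it, under half of replicates reach it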;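 also: signal also drops with host cell toxicity which is not excluded here; 0% = plate median of DMSO wells and 100% = zero luminescence signal; higher percent means less beta-gal luminescence so fewer parasites; stock transfer was 50 nL into about 50 µL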
Ecoli rRNA inh OD600: also measured in Ecoli rRNA inh; calls as there; OD600 change, %; measured here: OD600 growth;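 optical density of the mix in the first replicate; 0 = DMSO median and -100 = no signal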
Ecoli rRNA inh RFP: also measured in Ecoli rRNA inh; calls as there; RFP signal change, %; measured here: RFP humanized mutant strains;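 first replicate; 0 = DMSO median and -100 = no signal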
* hit, by the source's call; i = inactive; ? = inconclusive; . = not tested or not shown; & = joins results of further samples; ! = not confirmed by another sample. This is a subset; count on the stated rates, not on these rows.

Compound,FGF22 binding,Ecoli rRNA inh OD600,MLL AF4-AF9 inh,Beta cell apopt,Ecoli rRNA inh,T cruzi inh,Ecoli rRNA inh RFP,UCH37 DUB inh,Bfl-1 A1 inh,E coli growth
CCOC(=O)/C=C1\SCC(=O)N1CC(=O)Nc1ccc(C(C)C)cc1,.,.,.,0,.,-2,.,0.0,0.6,0.71
CC1(C)NC(=O)N(CC(=O)N2CCN(S(=O)(=O)c3ccccc3F)CC2)C1=O,i,16,-5.9,-1,8,.,-1.7,2.4,2.0,0.71
COc1cc(CC(CC(=O)c2ccc3c(c2)OCO3)C(=O)O)cc(OC)c1OC (centres undefined),i,4,0.8,.,4,.,-0.7,1.1,.,0.66
Cc1ccc(S(=O)(=O)CCC(=O)OCC(=O)NC2CCS(=O)(=O)C2)cc1 (centres undefined),i,12,0.1,2,7,-10,-2.6,-0.6,0.4,0.7
Cc1c(Cl)cccc1NC(=O)c1cc(-c2ccccc2O)n[nH]1,.,.,.,-1,.,-16,.,-1.2,-3.2,0.63
Cc1c(NC(=O)/C(C#N)=C/c2cccs2)c(=O)n(-c2ccccc2)n1C,i,9,0.2,2,6,-21,4.0,10,0.1,0.71
COC(=O)C1=C(C(=O)OC)[C@@H]2N(C)c3ccc(OC)cc3[C@@]23C[C@@H](C(=O)OC)N(C(=O)c2cc(C)oc2C)C3=N1,.,.,.,-4,.,7,.,0.2,-0.4,.
O=C(NC(Cc1ccccc1)C(=O)O)/C(=C\c1ccc(Cl)cc1)NC(=O)c1ccco1 (centres undefined),i,4,-0.6,-18,-1,8,-1.1,2.2,1.0,0.63
C(=N\Nc1nc2ccccc2[nH]1)/c1ccccn1,.,22,14,.,12,69*,2.1,.,.,.
COc1cc(S(=O)(=O)NC2CCCC2)c(OC)cc1C,i,6,-1.1,-6,4,-1,1.4,0.4,2.3,0.72
CC(C)c1cc(-c2cc(C(=O)NCc3ccccc3)on2)nc(NC2CCCC2)n1,i,-13,1.0,-1,-2,?,-11,-1.5,-0.2,0.64
O=C(c1ccc2nccnc2c1)N1CCN(c2ccccc2)CC1,i,13,-16,-1,5,-5,2.1,2.7,-0.5,0.73
O=C1CC(N2CCN(S(=O)(=O)c3ccc([N+](=O)[O-])cc3)CC2)C(=O)N1c1ccccc1F (centres undefined),i,7,3.2,4,-12,.,-0.4,5.0,1.2,0.67
CC1=Nc2nc(N3CCCCC3)c(C#N)c3c4c(nc(c23)N1)N(c1ccc(C(C)C)cc1)C(=O)C4,i,.,3.2,.,.,12,.,-7.0,2.4,0.71
CN1CCN(S(=O)(=O)c2ccc(NCc3ccc4c(c3)OCO4)nc2)CC1,i,5,-11,.,5,-2,-5.3,-0.3,.,0.66
Cn1ccnc1CN1CCCCC1C(=O)Nc1ccc(Oc2cccnc2)cc1 (centres undefined),i,3,-5.7,.,6,-8,3.2,4.9,-0.3,0.68
O=C(Nc1ccc(Cl)cc1)[C@@H]1[C@@H]2C(=O)N(c3ccc(Cl)cc3)C(=O)[C@@H]2[C@H]2C=CC=NN21,.,.,.,-6,.,-18,.,0.9,0.2,0.67
COc1cccc(-c2cc(C(F)(F)F)n3nc(C(=O)N4CCCCC4c4cccnc4)cc3n2)c1 (centres undefined),i,-44,17,17,-17,.,19,-14,-0.3,0.71
CC(C)C(=O)NC(=S)Nc1nnn(C)n1,.,.,.,-4,.,-8,.,4.2,0.1,0.64
COc1ccc(CN(C)C(=O)[C@H](Cc2ccccc2)NC(=O)c2ccco2)c(OC)c1,i,-15,8.3,1,2,.,3.3,2.3,0.5,0.68
Cc1ccc(NC(=O)Nc2cnccn2)cc1,i,4,-3.3,-1,-3,-1,-4.7,1.2,0.1,0.69
Cc1ccc(NC(=S)Nc2ccc(Cl)c(Cl)c2)c(OC(F)F)c1,i,-25*,3.4,-7,-41*,-13,-4.1*,1.6,0.8,0.6
COc1cc(/C=N/NC(=O)CCN2CCN(c3ccccc3)CC2)cc(OC)c1OC,i,-1,-0.8,2,-3,7,-1.3,.,-0.5,.
O=C(NCc1cccnc1)c1cccc2c1C(=O)N(Cc1cccnc1)C2,.,.,.,-2,.,3,.,1.4,1.5,0.67
O=C1COc2ccc(C(=O)COC(=O)c3ccccc3Cl)cc2N1,i,4,-0.9,-6,6,.,0.9,1.5,-5.4,0.73
Cc1ccc(/C=C/C(=O)OCC(=O)Nc2ccccc2Sc2ccccc2)cc1,i,0,-6.4,-13,3,-7,-2.8,1.8,-0.1,0.72
Brc1ccc(-c2cn3ccccc3n2)cc1,i,4,2.2,10,11,16,-5.0,-3.5,-7.1,0.7
COCC1CCN(C(=O)C2CCC(=O)N(CCc3ccc(Cl)cc3)C2)CC1 (centres undefined),i,0,-0.4,-5,5,-12,-0.5,2.3,-1.4,0.67
O=C1Nc2cc(C(F)(F)F)ccc2N2CCCCC12 (centres undefined),i,-3,-2.1,-4,1,10,-0.9,1.0,1.6,0.64
CCN(CC)C(=O)CSc1nnc(C2CCCCC2)o1,.,.,.,2,.,-6,.,0.8,-0.2,0.73
O=c1[nH]c2ccccc2nc1Cc1ccccc1,.,.,.,-3,.,-4,.,-8.6,0.5,0.69
CN(C)CC/C=C1/c2ccccc2Sc2ccc(Cl)cc21,i,4,27*!,6&-1,-10,29,9.9,5.4&0.2,2.3&-1.0,0.6
CC(=O)c1ccc(NC(=O)C(C)n2c3ccccc3c3nc(=O)cc(C)n32)cc1 (centres undefined),i,3,-35,4,8,-1,-4.2,1.3,0.0,0.67
Cc1c(C(=O)N2CCCCCC2)c(S(=O)(=O)Nc2ccccc2F)c(C)n1C,i,6,4.7,-4,1,-16,0.0,1.4,0.2,0.7
CC1CCCCN1C(=O)C(=O)c1cn(CC(=O)N2CCCC2)c2ccccc12 (centres undefined),i,7,0.2,-2,5,-8,1.0,4.3,-0.1,0.69
Cc1ccc(-n2c(O)c(C=Nc3ccc(S(=O)(=O)Nc4ncccn4)cc3)c3ccccc3c2=O)cc1C,i,6,-17,16,1,19,1.6,-11,0.2,0.71
CC(C)=N/N=C(/c1ccc([N+](=O)[O-])cc1)C12CN3CN(CN(C3)C1)C2,i,11,20,0,10,3,-2.0,.,-0.2,.
COc1ccccc1C(=O)NC(=O)Nc1c(C)cc(C)cc1C,i,13,-3.3,-4,14,-5,1.2,0.6,-1.4,0.64
CC(C)N(C(=O)CSc1nc(COc2ccccc2)nc2ccccc12)C(C)C,i,-3,-3.5,0,-34,35,22,2.0,-0.7,0.59
COc1ccc(OC)c(S(=O)(=O)n2cccn2)c1,.,.,.,-4,.,-7,.,-1.2,0.3,0.71
CCN(C(=O)CSc1nnc(-c2ccc(Cl)cc2)n1C)C1CCS(=O)(=O)C1 (centres undefined),i,8,1.2,-4,11,-4,2.5,0.7,0.8,0.67
CC1CC1C(=O)Nc1nc2ccc(Cl)cc2s1 (centres undefined),i,5,2.3,7,0,13,-1.5,2.5,-1.6,0.68
O=C(CCc1nnc2ccc(N3CCCC3)nn12)Nc1cc(F)ccc1F,i,1,-1.3,-3,6,1,1.1,2.4,0.3,0.66
CC(C)CC1NC(=O)N(CC(=O)Nc2ccccc2-c2ccccc2)C1=O (centres undefined),i,1,-0.7,-10,-8,-12,-4.7,2.5,1.3,0.66
COc1c(C)cc(C(=O)C2CCCN(Cc3c(C)n(C)n(-c4ccccc4)c3=O)C2)cc1C (centres undefined),i,3,0.9,.,7,20,0.2,3.1,-0.3,0.67
Cc1cc(NC(=O)Nc2ccccc2[N+](=O)[O-])no1,i,6,0.4,1,7,-3,0.4,2.5,-0.4,0.71
O=C(O)C(c1ccccc1)N1C(=O)/C(=C\c2ccc(-c3cccc(Cl)c3)o2)SC1=S (centres undefined),.,-12,0.2,-5,-5,-5,8.5,38*,0.1,0.75
CCc1ccc2c(c1)cc(CN(C(=S)Nc1ccccc1C)C1CC1)c1nnnn12,.,.,.,-3,.,22,.,3.4,1.0,0.72
Cc1ccc(OCCNS(=O)(=O)c2ccc(Cl)cc2)cc1,i,-14,-0.7,-6,-1,.,4.4,-0.1,0.6,0.7
O=c1c2c3c(sc2n(CCN2CCCC2)c(=O)n1Cc1ccccc1)CCCCC3,i,-2,9.5,-1,8,16,-1.6,2.9,-0.7,0.64

Exported with each value named: part of the list above.
> CCN(CC)C(=O)CSc1nnc(C2CCCCC2)o1
  FGF22 binding: .
  Ecoli rRNA inh OD600: .
  MLL AF4-AF9 inh: .
  Beta cell apopt: 2
  Ecoli rRNA inh: .
  T cruzi inh: -6
  Ecoli rRNA inh RFP: .
  UCH37 DUB inh: 0.8
  Bfl-1 A1 inh: -0.2
  E coli growth: 0.73
> O=c1c2c3c(sc2n(CCN2CCCC2)c(=O)n1Cc1ccccc1)CCCCC3
  FGF22 binding: i
  Ecoli rRNA inh OD600: -2
  MLL AF4-AF9 inh: 9.5
  Beta cell apopt: -1
  Ecoli rRNA inh: 8
  T cruzi inh: 16
  Ecoli rRNA inh RFP: -1.6
  UCH37 DUB inh: 2.9
  Bfl-1 A1 inh: -0.7
  E coli growth: 0.64
> Cc1cc(NC(=O)Nc2ccccc2[N+](=O)[O-])no1
  FGF22 binding: i
  Ecoli rRNA inh OD600: 6
  MLL AF4-AF9 inh: 0.4
  Beta cell apopt: 1
  Ecoli rRNA inh: 7
  T cruzi inh: -3
  Ecoli rRNA inh RFP: 0.4
  UCH37 DUB inh: 2.5
  Bfl-1 A1 inh: -0.4
  E coli growth: 0.71

The results go on:
Compound,FGF22 binding,Ecoli rRNA inh OD600,MLL AF4-AF9 inh,Beta cell apopt,Ecoli rRNA inh,T cruzi inh,Ecoli rRNA inh RFP,UCH37 DUB inh,Bfl-1 A1 inh,E coli growth
CCOC(=O)CSc1nc2c(c(=O)n1-c1ccc(OCC)cc1)SCC2,i,2,-40,1,4,13,3.0,-2.0,-0.4,0.72
O=C(CN1CCC(n2nnc3ccccc32)CC1)Nc1ccc2c(c1)CCC2,.,.,.,.,.,3,.,1.1,-0.2,0.73
CN(C)CCn1nnnc1SCC1=C(C(=O)O)N2C(=O)[C@@H](NC(=O)Cc3csc(N)n3)[C@H]2SC1,i,.,-3.6,-10,.,.,.,-1.8,-0.6,.
COc1ccc(CCNC(=O)c2ccccc2NC(=O)c2ccco2)cc1OC,.,.,.,7,.,-15,.,0.5,0.4,0.68
COCCN1C(=O)C(=O)/C(=C(/O)c2ccc(S(=O)(=O)N3CCCCC3)cc2)C1c1ccc(OC)c(OC)c1 (centres undefined),i,8,0.9,.,-1,-16,-0.7,.,-0.7,.
COc1ccc(C(C)(C)C)cc1NC(=O)Cn1cnnn1,i,10,-0.5,-8,12,2,-1.0,3.8,-0.4,0.66
Cc1ccc(C2(C)NC(=O)N(CC(=O)NNC(=O)c3cc(C)oc3C)C2=O)cc1 (centres undefined),i,6,-32,-9,10,-2,1.8,2.9,1.3,0.6

Structures above shown as hits in MLL AF4-AF9 inh:
| canonical_smiles | FGF22 binding | Ecoli rRNA inh OD600 | MLL AF4-AF9 inh | Ecoli rRNA inh | Ecoli rRNA inh RFP | UCH37 DUB inh | E coli growth |
| --- | --- | --- | --- | --- | --- | --- | --- |
| CN(C)CC/C=C1/c2ccccc2Sc2ccc(Cl)cc21 | i | 4 | 27*! | -10 | 9.9 | 5.4&0.2 | 0.6 |
